VDR inh: blocks the human vitamin D receptor | actives 0.93% (n = 400,000) | AID 504847 | Potency, µM, without a hit: max response, negative = inhibition, hits mostly inhibitors | VDR-SRC2-3 peptide fluorescence polarization, 2 h | P11473; active means well fitted inhibition curve with a large enough effect; inconclusive means small, poorly fitted or top-dose-only effect, or another doubt; inactive means no such curve, though single readings can be large or run the other way; further: series mostly up to about 120 µM
Target sequence (P11473 whole entry, looked up): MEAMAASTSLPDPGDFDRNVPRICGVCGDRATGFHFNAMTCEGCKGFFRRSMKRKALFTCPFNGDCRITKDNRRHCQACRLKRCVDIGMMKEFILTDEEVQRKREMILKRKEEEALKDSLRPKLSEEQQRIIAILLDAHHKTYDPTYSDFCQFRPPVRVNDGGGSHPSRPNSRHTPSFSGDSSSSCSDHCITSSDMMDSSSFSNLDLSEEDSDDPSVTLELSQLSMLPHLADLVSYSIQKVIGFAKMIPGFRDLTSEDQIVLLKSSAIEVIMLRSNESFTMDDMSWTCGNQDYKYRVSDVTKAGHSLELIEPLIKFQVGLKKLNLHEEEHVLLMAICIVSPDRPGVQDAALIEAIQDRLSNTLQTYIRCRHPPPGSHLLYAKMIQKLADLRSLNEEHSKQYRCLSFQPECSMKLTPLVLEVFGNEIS
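The screen uses fluorescence polarization to detect compounds that interfere with recruitment of the SRC2-3 coactivator peptide to VDR; plates are read after 2 h at room temperature.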
The depositor's hits bear a star; ? = inconclusive; & = joins results of further samples; [ ] = another dose, or the depositor's remark. On the % scale 0 is the no-effect control and ±100 the full control effect; potency means the concentration at half of the fitted maximal effect. Not all compounds are listed, so the mix of outcomes need not match the whole.

Preview (three entries):
SMILES	VDR inh
NNC(=O)CNC(c1ccccc1)c1cc(Br)ccc1NC(=O)c1ccccc1Br (centres undefined)	-2.2%
Nc1ncnc2nc(-c3ccc(N4CCOCC4)nc3)cc(-c3cccc(Br)c3)c12	-2.0%
O=C(NCCc1ccccc1)N1c2ccccc2Sc2ccccc21	?

The whole of this part (from the top)
SMILES	VDR inh
NNC(=O)CNC(c1ccccc1)c1cc(Br)ccc1NC(=O)c1ccccc1Br (centres undefined)	-2.2%
Nc1ncnc2nc(-c3ccc(N4CCOCC4)nc3)cc(-c3cccc(Br)c3)c12	-2.0%
O=C(NCCc1ccccc1)N1c2ccccc2Sc2ccccc21	?
COc1ccc(Cl)cc1NC(=O)CCNC(=O)OCc1ccccc1	-8.7%
COC(/C=C/Nc1ccc(C)c(C)c1)=C(C#N)C#N	1.7%
COc1ccc(NC(=O)c2cccnn2)cc1	5.1%
O=[N+]([O-])c1ccc(C2=NN(c3ccccc3)C(c3ccco3)C2)cc1 (centres undefined)	-1.7%
CCOC(=O)/C(C#N)=C(/C)c1ccc(OC)cc1	-14.9%
O=C(CN1CCN(Cc2ccccc2F)CC1)Nc1ccccc1Cl	-0.2%
CCOC(=O)c1ccc(NC(=O)CC2Nc3cc(C)c(C)cc3NC2=O)cc1 (centres undefined)	3.3%
CCCCCCCCCCCCCCCCCCCCCCCCCCCCCC	-3.2%
OCCNc1nc2ccccc2n1CCN1CCCCC1	7.9%
O=[N+]([O-])c1ccc(C(=S)N2CCCC2)cc1	-28.6%
Cc1cc2nc(SCC(=O)Nc3nonc3C)c3c(c2cc1C)CCCC3	-0.5%
Cc1ccc(CNc2cc(C(=O)O)ccc2Cl)s1	5.0%
N#CC1C(=N)Cc2ccccc2-c2ccccc21 (centres undefined)	9.6%
CSc1ccccc1N=Cc1nc(-c2ccccc2)oc1O	17.3%
O=C(NCc1ccccn1)c1cc(Br)ccc1Cl	36.4%[activator]
COc1ccc(C2CC(c3ccccc3)=NN2C(=O)COC(=O)c2cccc(S(=O)(=O)N3CCOCC3)c2)cc1 (centres undefined)	-3.4%
Cc1cc(C2C(=O)c3ccccc3C2=O)c(C)c(C)c1C	14.3%
Cc1ccc(C)c(NC(=O)CCc2nc3cccnc3n2Cc2cccs2)c1	-2.4%
C=CCNC(=S)NC(=O)c1csc([N+](=O)[O-])c1	?
Cc1c(C)c2ccc(OCC(=O)NCCc3c[nH]c4ccccc34)c(C)c2oc1=O	-6.6%
Cc1[nH]n(C(N)=S)c(=O)c1N=Nc1ccc([N+](=O)[O-])cc1Cl	-8.4%
COc1ccccc1/C=C/C(=O)OCCN1C(=O)c2ccccc2C1=O	5.0%

Additional entries follow.
SMILES	VDR inh
Cc1noc(C)c1S(=O)(=O)NC1CCCc2ccccc21 (centres undefined)	-5.7%
Cc1ccc(NC(=O)CC(O)(C(F)(F)F)C(F)(F)F)cc1	-4.3%
COc1ccc(NC(=O)CN2CCN(CC(=O)Nc3ccccc3Cl)CC2)cc1Cl	-10.0%
CC(CCc1ccccc1)NC(=O)c1cnc(Cl)c(Cl)c1 (centres undefined)	-7.6%
c1ccc(-c2cnc(CSc3ncnc4sccc34)o2)cc1	8.2%
Cc1ccc(S(=O)(=O)NCCC(c2ccccc2)c2ccccc2)cc1C(=O)O	-1.5%
COc1ccccc1-c1cc(C(=O)N2CCOCC2)no1	-16.1%
O=C(COc1ccccc1)N1CCN(C(=O)c2ccco2)CC1	-11.7%
COc1cc(C)cc(CN2CCC(Cc3ccccc3)CC2)c1O	-3.1%
Cc1cc(S(=O)(=O)NCC(C)C)ccc1OCC(=O)NCc1ccccn1	12.4%
CCOc1cc(C(=O)NC(C)Cc2cccs2)cc(OCC)c1OCC (centres undefined)	11.6%
O=C(NCCc1ccc(F)cc1)c1ccncc1	11.7%
C=C(C)C1CC=C(C)/C(=N/NC(=O)COc2ccccc2C)C1 (centres undefined)	-15.5%
Cc1ccccc1Nc1ncnc2c1cnn2C	-14.4%&13.1%
O=C(OCC(=O)N1CCOCC1)c1ccc(Cl)nc1	-7.7%
Cc1cc(NC(=O)CSc2nnnn2C)n(-c2ccccc2)n1	-2.8%
O=c1[nH]cnc2sc3c(c12)CCN(Cc1ccccc1)C3	-0.8%
Cc1cccc(Cc2cnc(N3C(=N)SC(c4ccccc4)C3=O)s2)c1 (centres undefined)	-1.6%
COc1ccc2c(C)c(CC(=O)N3CCN(C(=O)C4COc5ccccc5O4)CC3)c(=O)oc2c1C (centres undefined)	?
CCOC(=O)C1=C(C)N(C)C(=O)NC1c1cc2c(cc1Br)OCO2 (centres undefined)	-29.3%
COc1cc(C2C(C#N)=C(N)Oc3cc(O)ccc32)cc(OC)c1OC (centres undefined)	11.2%
CN(C)c1ncnc2ccc(-c3ccc4c(c3)OCO4)cc12	-16.6%
CC(C)[C@H](NS(=O)(=O)c1ccc(Cl)cc1)C(=O)OCC(=O)NCCN1C(=O)CSC1=O	0.3%
CC(=O)N1CCN(c2ccc(NC(=O)c3ccc4c(c3)OCO4)cc2)CC1	-22.8%
COc1ccccc1/C=C/C(=O)NC(=S)NC(C)C	?

Part of the list above in order of SMILES length, largest number first:
SMILES	VDR inh
COc1ccc2c(C)c(CC(=O)N3CCN(C(=O)C4COc5ccccc5O4)CC3)c(=O)oc2c1C (centres undefined)	?
CC(=O)N1CCN(c2ccc(NC(=O)c3ccc4c(c3)OCO4)cc2)CC1	-22.8%
O=c1[nH]cnc2sc3c(c12)CCN(Cc1ccccc1)C3	-0.8%
COc1ccccc1-c1cc(C(=O)N2CCOCC2)no1	-16.1%
O=C(NCCc1ccc(F)cc1)c1ccncc1	11.7%

Part of the list above, in CSV form:
mol,VDR inh
CCCCCCCCCCCCCCCCCCCCCCCCCCCCCC,-3.2%
OCCNc1nc2ccccc2n1CCN1CCCCC1,7.9%
O=[N+]([O-])c1ccc(C(=S)N2CCCC2)cc1,-28.6%

Going on with the list.
SMILES	VDR inh
CC(C)CNC(=O)C1CCN(c2ccc(S(=O)(=O)N3CCOCC3)cc2)CC1	-13.1%
COc1cc2c(cc1OC)C(COc1ccccc1OC)N(C(=O)C(C)C)CC2 (centres undefined)	5.7%
COc1ccc(-c2nnc(SCC(=O)Nc3ccccc3OC)o2)cc1	4.8%
CN1CCN(C(=O)c2ccccc2NS(=O)(=O)c2ccc(F)cc2)CC1	1.2%
Cn1cc(S(=O)(=O)c2ccccc2)n(C)c1=O	-18.7%
CCN(CC)c1ccc(/C=N\N2CCN(Cc3ccc(C)cc3)CC2)cc1	2.3%
CC1(C)CCCN(C(=O)N2c3ccccc3Sc3ccccc32)C1	-2.2%
CC1=C(C(N)=O)C(c2sccc2C)n2nnnc2N1 (centres undefined)	?
N#CCc1ccccc1C(=O)OCC(=O)N(Cc1ccccc1)Cc1ccccc1	-3.1%
CC12CCC(C(=O)NCc3ccc(F)cc3)(OC1=O)C2(C)C (centres undefined)	0.5%
COc1ccc(CN2C(=O)C(C)Nc3ncnc(N4CCN(c5ccccn5)CC4)c32)cc1 (centres undefined)	-11.0%
CC(C)(C)OC(=O)C[C@@H]1C/C=C\C[C@@H](CC(=O)N(CCO)Cc2ccccc2)C(=O)N[C@H](C(C)(C)C)COC1=O	-20.6%
O=C(CN1N=C(c2ccccc2)CCC1=O)NCc1cccs1	-19.0%
Cc1cc(C)nc(SCc2nnc(SCC(=O)Nc3nc(-c4ccccc4)cs3)n2C)n1	-13.1%
CCCCC(=O)NC(=S)Nc1cc(C(=O)O)ccc1Cl	-6.3%
Cc1ccc2c(c1)c(=O)c1c3n2CCN(C(=O)CCl)C3CC1 (centres undefined)	?
O=c1cnc2cnc(Nc3ccccc3)nc2n1C[C@H]1CCCO1	-3.5%
CCN1CCN(CCCNC(=O)c2ccc(/C=C3/Sc4ccccc4N(Cc4ccccc4F)C3=O)cc2)CC1	-3.9%
CCOC(=O)c1ccc(NC(=O)c2cc3ccccc3o2)cc1	1.4%
Cc1ccc(CC(=O)N(Cc2ccccc2)c2ccccn2)cc1	7.5%
COc1ccc(-c2noc(C3CCCN(S(=O)(=O)c4cccc(Cl)c4C)C3)n2)cc1OC (centres undefined)	-9.5%
Cc1cc(=O)[nH]c(SCC(=O)Nc2ccc(N3CCCCC3)cc2)n1	-7.4%
CC(=O)NC1CCCN(O)C(=O)/C=C(\C)CCOC(=O)C(NC(C)=O)CCCN(O)C(=O)/C=C(\C)CCOC(=O)C(NC(C)=O)CCCN(O)C(=O)/C=C(\C)CCOC1=O (centres undefined)	-8.7%
Cc1ccc(-c2nnc(CN3CCN(C)CC3)o2)cc1	0.1%
O=C(NC1CCCCC1)C(c1ccc(F)cc1)N(CCN1CCOCC1)C(=O)c1ccc(-c2ccccc2)[nH]1 (centres undefined)	21.9%

New compounds follow:
SMILES	VDR inh
N#C/C(=N\Nc1ccccc1)C(=N)N1CCCCC1	-0.9%
CCC(=O)Nc1nc(C)c(C(=O)Nc2cccc(Cl)c2)s1	-18.6%
Cc1ccc([N+](=O)[O-])cc1S(=O)(=O)N1CCn2cccc2C1c1ccccc1 (centres undefined)	7.6%
O=C1OC(c2ccccc2)Sc2ccccc21 (centres undefined)	2.9%
CS(=O)(=O)c1ncc(Cl)c(C(=O)Nc2ccc3ccccc3c2)n1	12.6µM*
CC(C)OCCCNC(=O)CCCn1c(SCC(N)=O)nc2c(sc3ccccc32)c1=O	-1.8%
O=C(Cc1ccccc1)NCC(=O)OCC(=O)c1ccc(Cl)cc1	7.2%
CCOc1cc(C)nc(Oc2ccc(=O)[nH]n2)n1	-13.8%
CCOC(=O)c1sc(NC(=O)CSc2nnc(-c3ccco3)n2CC)c(C(=O)OCC)c1C	20.0%
O=C(c1ccc2c(c1)OCCO2)N(c1ccccn1)C1CCCCC1	10.4%
CCn1c(Cc2ccccc2)nnc1SCC(=O)Nc1nc(C)cs1	-3.0%
COc1ccc(C2=NN(S(C)(=O)=O)C(c3cn(-c4ccccc4)nc3-c3cccs3)C2)cc1 (centres undefined)	10.8%
Oc1ccc2ccccc2c1C=NC12CN3CCN(CN(C3)C1)C2	?
Cc1cccc(C)c1NC(=O)CNC(=O)c1ccc(NS(=O)(=O)c2ccc3[nH]c(=O)[nH]c3c2)cc1	-4.9%
COc1ccccc1CNC(=O)CCc1ccccc1	-8.9%
COC(=O)c1sccc1NC(=O)COc1ccc(C)cc1	-11.2%
Cc1cc(O)cc2c1C1CCC3(C)C(O)CCC3C1C=C2 (centres undefined)	17.1%
Cc1ccc(C(=O)N2CC(C(=O)O)C2)cc1	-23.7%
CCOC(=O)C1=C(C)N(C2CCCCC2)C(=O)C1	7.8%
Fc1ccccc1-c1nc(N2CCN(c3cccc(Cl)c3)CC2)c2ccccc2n1	-6.4%
COc1ccc(CNC(=O)Cc2c(C)c3cc4c(C)coc4c(C)c3oc2=O)cc1	3.7%
CN(C)CCNCc1ccc(OC2CCCC2)cc1	-0.5%
Cc1ccc(Oc2c(C(F)(F)F)oc3c(CN4CCCCC4C)c(O)ccc3c2=O)cc1 (centres undefined)	36.0%[activator]
COc1ccc(-c2nc3ccccc3s2)cc1O	-3.3%
CN(C)/C=C/C(=O)c1ccc2noc(-c3ccccc3)c2c1	-10.4%

Two entries from above, in markdown:
| Compound | VDR inh |
| --- | --- |
| Fc1ccccc1-c1nc(N2CCN(c3cccc(Cl)c3)CC2)c2ccccc2n1 | -6.4% |
| N#C/C(=N\Nc1ccccc1)C(=N)N1CCCCC1 | -0.9% |

Next compounds.
SMILES	VDR inh
O=C(Nc1ccc(-c2nc3ccccc3o2)cc1)c1ccc2c(c1)OCO2	-6.0%
CCC(=O)Nc1ccc(-c2nnc(SCc3ccc(C(=O)Nc4nccs4)cc3)n2CC)cc1	17.2%
O=CN1CC(=O)N(c2ccccc2)c2c([nH]c3ccccc23)C1	11.5%
CCC(CC)C(=O)Nc1cc(-c2ccccc2F)nn1-c1ccccc1	4.7%
O=C(CSc1nnc(NC(=O)C2CC2)s1)Nc1ccccc1C(F)(F)F	-4.6%
NS(=O)(=O)c1ccc(Nc2ccc3cc(S(=O)(=O)N4CCCCC4)ccc3n2)cc1	1.5%
CCOc1ccc(-c2noc(CCC(=O)NC)n2)cc1OCC	4.4%
COc1ccc(CCC(=O)NCCS(=O)(=O)N2CCN(c3ccc(OC)cc3)CC2)cc1	-5.7%
Cc1cccc(CNC(=O)CN2C(=O)C3CCCCN3c3ccc(C(=O)N4CCCC4)cc32)c1 (centres undefined)	20.7%
Cc1cnc(NC(=O)c2cc3ccccc3o2)s1	0.8%
O=C1OCCC/C1=C\c1ccc2c(c1)OCO2	-26.6%
COc1cc(OC)cc(C(=O)NN2CCOCC2)c1	5.7%
COc1ccc(CC(=O)NCc2ccc3c(c2)cc(C)n3C)cc1	-14.5%
COc1ccc(Cl)cc1S(=O)(=O)NCc1nc2nc(C)cc(C)n2n1	-20.2%
COC(=O)c1c(O)cc(C(C)(C)C)n(-c2ccc(F)cc2)c1=O	-13.9%
CCc1ccccc1Nc1cc(C(=O)NC(C)c2ccccc2)c2ccccc2n1 (centres undefined)	-17.9%
CC(=O)Nc1ccc(S(=O)(=O)N2CCN(S(=O)(=O)N3CCC(C)CC3)CC2)cc1	-4.2%
O=C(c1ccccc1)c1sc(N2CCOCC2)nc1-c1ccccc1	-4.6%
Cc1cc(C(=O)OCC(=O)N2c3ccccc3NC(=O)C2(C)C)c(C)n1-c1ccccc1	-2.0%
Cc1cc(C)nc(SCc2nnc(SCc3ccccc3Cl)o2)n1	2.9%
COc1ccccc1N1CCN(C(=O)c2ccc(NS(=O)(=O)c3ccc(C)cc3)cc2)CC1	-5.5%
O=C(c1cnn(C(=O)c2ccco2)c1)c1cc(Cl)cc(Cl)c1O	-10.4%
CCCCOP(=O)(c1ccc(N(C)C)cc1)C(O)c1ccccc1F (centres undefined)	-5.8%
O=C(CSc1nc2ccccc2[nH]1)Nc1cc(C(F)(F)F)ccc1N1CCOCC1	23.4%
Cc1ccc(SCC(=O)NNC(=O)c2ccccc2)c(C)c1	-4.2%

Assay outcomes from PubChem BioAssay.
